Source: PubChem
VACV mCherry inh: qHTS for Stage-Specific Inhibitors of Vaccinia Orthopoxvirus: mCherry Reporter Primary qHTS | 310,000 tested, 0.63% active | Potency, µM (doses to about 36.5 µM), without a hit: at the top dose activity change, negative = inhibition, usual class: inhibitors | Vaccinia virus mCherry reporter infection, fluorescence; about a quarter of the inactives have no number | AID 720579, 2013; active = well fitted inhibition curve with a large enough effect; inconclusive = small, poorly fitted or top-dose-only effect; inactive = no such curve, though single readings can be large or run the other way; tested in A549 cells; also: nearly all actives have a fitted effect of over 35% in size; inactives centre near -10
VACV Venus inh: qHTS for Stage-Specific Inhibitors of Vaccinia Orthopoxvirus: Venus Reporter Primary qHTS; Vaccinia virus Venus reporter expression, fluorescence; Potency, µM (series often up to 36.5 µM), for the others: top-dose activity change, negative = inhibition, most hits filed as inhibitors; 330,000 tested, 0.46% active; active means well fitted inhibition curve with a large enough effect; inconclusive means small, poorly fitted or top-dose-only effect; inactive means no such curve, though single readings can be large or run the other way; tested in A549 cells; also: nearly all actives have a fitted effect of over 30% in size; inactives centre near -10
* marks the source's active call; other numbers are inactive results; i = inactive; ? = inconclusive; · = not tested or not shown; [ ] = another dose, or the depositor's remark. % is scaled to controls: 0 for no effect and ±100 for the full control effect; potency is read from the fitted curve at half-maximal effect.

Values in the order – VACV mCherry inh | VACV Venus inh
> CCCc1c(C)nc(SCC(=O)C(C)(C)C)nc1OC(=O)N(C)C
  i | -10%
> CCCCCC(=O)Nc1nnn(CCC)n1
  -13% | -14%
> CC(C)Oc1ccc(C(=O)Nc2nc3ccccc3[nH]2)cc1
  52%[activator] | -5%
> Cc1cc(CNC(=O)c2cnn(-c3ncc4c(n3)-c3ccccc3CC4)c2C2CC2)on1
  -20% | -9%
> CCCCC(=O)N(C)c1c(C)nc2ccc(C(=O)NCc3ccccc3OC)cn12
  i | 1%
> CCC(NC(=O)c1ccccc1NC(=O)C(C)(C)C)C(=O)N1CCCC1 (configuration not stated)
  -11% | -10%
> COc1ccc(-c2cc(C(=O)Nc3cc(C)n(Cc4ccc(Cl)cc4)n3)no2)cc1OC
  ? | ?
> Cc1cccc(C)c1NC(=O)COC(=O)c1ccccc1[N+](=O)[O-]
  -3% | -11%
> CCOc1ccccc1NC(=O)CN1C(=O)COc2ccc(S(=O)(=O)Nc3ccccc3)cc21
  -15% | -6%
> Cc1ccc(CN2CCN(Cc3ccccn3)CC2CCO)cc1 (configuration not stated)
  -3% | -3%
> CCCN1CCC(=O)N([C@H](CSc2ccc(OC)cc2)Cc2ccccc2)CC1
  -8% | ?
> COc1ccc(S(=O)(=O)N2CCC[C@H]2C(=O)N2CCC[C@H]2C(=O)NCc2ccccn2)cc1C
  i | 0%
> COc1cccc(C(=O)NCCS(=O)(=O)N2CCC(C)CC2)c1
  -13% | 5%
> CCOc1ccc(Br)cc1CNCCSc1nnnn1-c1ccccc1
  -2% | 7%
> CCOC(=O)c1[nH]c(C)c(C(=O)NCC2CCCO2)c1C (configuration not stated)
  · | -2%
> CC(C)N(Cc1ccccc1)C(=O)CCS(=O)(=O)c1ccc2c(c1)oc(=O)n2C
  -8% | -12%
> Cc1ccc(NP(=O)(c2ccc(N(C)C)cc2NC(=O)c2cccs2)N2CCOCC2)cc1Cl (configuration not stated)
  i | -11%
> CCCn1c(=O)c2ccccc2n2c(SCCOc3ccc(C)cc3)nnc12
  -15% | -15%
> COc1cc(/C=C2/SC(=NCc3ccccc3)N(Cc3ccccc3)C2=O)ccc1O
  -12% | 22%
> Cc1ccc(OCC(=O)N2CCc3ccccc32)cc1
  -5% | -16%
> O=C1c2cccc3cccc(c23)C(=O)N1c1nncs1
  · | -19%
> CCOc1ccc(-c2c(C(=O)N/N=C(\C)c3cccs3)nnn2-c2nonc2N)cc1
  i | -18%
> CCC(CC)n1[nH]c(=O)c2c(C)cc(C)nc21
  i | -9%
> CCc1ccc([C@@H]2CC=C(C(=O)O)[C@H](c3ccccc3)N2S(=O)(=O)c2ccc(C)cc2)cc1
  -11% | -21%
> CCOC(=O)C1CCN(C(=O)Cn2ncc3c4ccccc4n(C)c3c2=O)CC1
  6% | 11%
> CS(=O)(=O)N(Cc1nc(-c2ccc(F)cc2)no1)c1ccccc1Cl
  -9% | -35%
> O=C(Nc1ccccc1N1CCCCC1)c1ccc(OC(F)F)cc1
  i | 2%
> Cn1c(=O)n(C)c2cc(C(=O)O)ccc21
  -15% | 0%
> O=c1oc2ccccc2n1CCCOc1ccccc1Cl
  -5% | 3%
> CCSc1ncc(Cl)c(C(=O)Nc2nc3ccc(Cl)cc3s2)n1
  i | -16%

Molecules above that have a COOH group, in the order listed:
Values in the order – VACV mCherry inh | VACV Venus inh
> CCc1ccc([C@@H]2CC=C(C(=O)O)[C@H](c3ccccc3)N2S(=O)(=O)c2ccc(C)cc2)cc1
  -11% | -21%
> Cn1c(=O)n(C)c2cc(C(=O)O)ccc21
  -15% | 0%

(list continues)
Values in the order – VACV mCherry inh | VACV Venus inh
> COc1cccc(N2CC(=O)N(NC(=O)CSc3nc(C)cc(C)c3C#N)CC2=O)c1
  ? | -28%
> CCC(Oc1ccccc1)C(=O)Nc1ccc(C)c(S(=O)(=O)N2CCOCC2)c1 (configuration not stated)
  -14% | -10%
> COc1ccc(C2CCCN2C(=S)Nc2ccc(C)cc2C)cc1OC (configuration not stated)
  i | -12%
> C[C@@H]1CN([C@@H](C)CO)C(=O)c2cc(NS(C)(=O)=O)ccc2O[C@H]1CN(C)Cc1ccc(Oc2ccccc2)cc1
  ? | ?
> O=C(NNC(=O)c1cccs1)c1cccnc1
  i | -17%
> Cc1ccc(C)c(NC(=O)CCn2cnnn2)c1
  1% | 8%
> Nc1ccccc1C(=O)c1ccccc1
  18% | 4%
> Cc1cc(C)cc(N(C(=O)CNC(=O)c2ccco2)C(C(=O)NC2CCCCC2)c2cccnc2)c1 (configuration not stated)
  -12% | -6%
> CC(C)C1N(C(=O)N2CCOCC2)CCN1S(=O)(=O)c1ccccc1 (configuration not stated)
  1% | 4%
> COc1ccccc1-c1coc2c(CN3CCN(CCO)CC3)c(O)ccc2c1=O
  -10% | -1%
> CC(C)c1ccc(S(=O)(=O)N2CCN(C(=O)c3ccc(N4CCCC4)c([N+](=O)[O-])c3)CC2)cc1
  -20% | ?
> Cc1nn(Cc2ccccc2Cl)c2sc(C(=O)NCc3ccc4c(c3)OCO4)cc12
  · | -26%
> Cc1cccc(-n2cc(-c3ccccc3)c3c(NC4CCCC4)ncnc32)c1
  -16% | -11%
> CCOC(=O)c1cc2c(C)[nH]c(C)c2cc(C(=O)OCC)c1=O
  i | -10%
> COc1ccc(CCN=C2SCC(=O)N2Cc2ccccc2)cc1OC
  -12% | -21%
> Cc1onc(-c2ccccc2)c1C(=O)NCc1ccccc1F
  -14% | 0%
> CCOC(=O)c1c(NC(=O)CN2CCN(C)CC2)sc(C(=O)Nc2ccccc2)c1C
  -7% | -24%
> Cc1cc(CNC(=O)c2cccc3c2C(=O)c2ccc(-c4ccc(F)cc4OCc4ccccc4)cc2S3(=O)=O)c(C(F)(F)F)o1
  i | -14%
> CCN(C(=O)CCS(=O)(=O)c1cccc2nonc12)c1ccc(C)c(C)c1
  -12% | -20%
> O=C(O)c1ccc(C=NNC(=O)c2cccc3ccccc23)cc1
  -1% | -6%
> O=C(Cc1ccccc1)NNC(=O)Nc1cccc(Cl)c1
  -19% | -7%
> Cc1coc(C)c1C(=O)CC1(O)C(=O)Nc2cc(Cl)cc(Cl)c21 (configuration not stated)
  -8%[1.46 µM] | -8%
> COc1ccc(C)cc1NC(=O)CSc1nc2scc(C)c2c(=O)[nH]1
  -13% | -2%
> COc1cccc(-c2nnc(-c3cc4cc(Cl)ccc4oc3=O)o2)c1
  -8% | 5%
> CCOC(=O)c1c(C)oc2ccc(OCc3cc(C(=O)OC)oc3C)cc12
  ? | -19%
> CCN1C(=O)C2(SC(NC(C)=O)=NN2C(C)=O)c2cc(C)ccc21 (configuration not stated)
  12% | 13%
> Cc1ccc(N2CCn3c2nc2c3c(=O)n(CCCc3ccccc3)c(=O)n2C)cc1C
  -11% | -4%
> CCN(c1ccccc1)S(=O)(=O)c1ccc2c(c1)CCCN2C(C)=O
  -21% | -8%
> Cc1ccc2nc(Cl)c3cc(C(=O)N(C)C4CCCCC4)sc3c2c1
  -4% | -3%
> COc1cc(NC(=O)c2cc(OC)c(OC)c(OC)c2)c(OC)cc1NC(=O)CN1CCCCC1
  · | -5%
> CC(C)N(C(=O)Cn1cc(S(=O)(=O)CC(=O)NCCc2ccccc2)c2ccccc21)C(C)C
  i | -13%
> [O-][n+]1c2cc(C(F)(F)F)ccc2c2n1CCN=C2c1ccc(Cl)cc1
  -19% | -19%
> O=C(CN1C(=O)c2ccccc2C1=O)NCC(=O)Nc1ccccc1
  -12% | -4%
> COc1ccc(-c2noc(CSc3nnc(-c4ccncc4)n3-c3ccc(OC)cc3)n2)cc1
  1% | 2%
> C/C(CCc1ccccc1)=N\NC(=O)COc1ccccc1C
  i | -4%
> O=C(N/N=C/c1cn(-c2ccccc2)nc1-c1ccc2c(c1)OCCO2)c1ccncc1
  ? | -5%
> O=C(NCCSCc1ccccc1Cl)C1CCN(S(=O)(=O)Cc2ccccc2)CC1
  -4% | -2%
> O=C(CSc1nnc2scc(-c3ccccc3)n12)Nc1nsc(-c2ccc(Cl)cc2)n1
  -8% | 1%
> COc1ccc(-c2noc(-c3ccc(NC4CCCCC4)c([N+](=O)[O-])c3)n2)cc1
  2% | -2%
> S=C(NCCc1ccccc1)N1Cc2cc(-c3ccccc3)ccc2-n2nncc2C1
  12% | -4%
> CCOc1ccccc1NC(=O)Nc1cccc(NC(C)=O)c1
  i | -22%
> COc1cccc(N(C(=O)CNC(=O)c2ccco2)C(C(=O)NC2CCCCC2)c2ccncc2)c1 (configuration not stated)
  i | -14%
> COCCCNC(=O)c1ccc2nc([C@@H]3O[C@H](CO)[C@H](O)[C@H](O)[C@H]3O)[nH]c2c1
  22% | 5%
> CCc1ccc(NC(=O)CSc2nc3ccccc3c(=O)n2CCC(=O)NC2CCCCC2)cc1
  -12% | -9%
> COc1ccccc1CCC(=O)OCC(=O)N1CCN(S(=O)(=O)c2ccc(C)cc2C)CC1
  -13% | -18%
> NC(=O)C1CCN(C(=O)C2CCC(=O)N(C3CCCCCC3)C2)CC1 (configuration not stated)
  i | -6%
> C/C(=N\NC(=O)c1sccc1C)c1ccncc1
  -17% | -23%
> O=C1C=C(c2ccc(O)cc2)C[C@@H](c2ccc3c(c2)OCO3)C1
  -5% | -27%
> COC(=O)c1cccc(NC(=O)c2cccc(OC)c2)c1
  -21% | -17%
> Cc1ccsc1/C=N\NC(=O)c1ccc2c(c1)OCO2
  -18% | -4%
> COCCNc1nnc(SCC(=O)NC(=O)c2ccccc2)s1
  i | 0%
> CCOC(=O)c1cc2[nH]c3ccccc3c2[n+](-c2ccc([N+](=O)[O-])cc2)c1C
  -22% | -9%
> Cc1nn(Cc2c(Cl)cccc2Cl)c(C)c1NC(=O)c1cc(C(C)C)on1
  -24% | -20%
> CCc1ccccc1NC(=O)Cn1nnc(C(=O)OC)c1C(=O)OC
  -1% | 0%
> Nc1nc(C23CC4CCC(CC(C4)C2)C3)cs1
  -26% | -5%
> O=C(NCCc1ccccc1)C1CCN(C(=O)c2sccc2-n2cccc2)CC1
  i | -10%
> COc1ccc(OC)c(S(=O)(=O)N(C)CC(=O)Nc2ccc3c(c2)OCCO3)c1
  · | -17%
> COc1cc(CCC(=O)NCc2ccc(S(N)(=O)=O)cc2)cc(OC)c1OC
  -16% | 1%
> COc1ccc(CCNC(=O)COc2ccc(S(=O)(=O)N3CCCC3)cc2)cc1
  -1% | -9%
> CCC(C)(C(=O)NC1CCCC1)N(Cc1cccs1)C(=O)c1ccc2c(c1)OCO2 (configuration not stated)
  -9% | -19%

Profiles from above. Screens in order: VACV mCherry inh | VACV Venus inh
Listed for Cc1nn(Cc2c(Cl)cccc2Cl)c(C)c1NC(=O)c1cc(C(C)C)on1 = -24% | -20%
Listed for COc1cc(CCC(=O)NCc2ccc(S(N)(=O)=O)cc2)cc(OC)c1OC = -16% | 1%

(listing goes on)
Values in the order – VACV mCherry inh | VACV Venus inh
> COc1ccc(S(=O)(=O)N2CCN=C2SCc2cccnc2)cc1
  ? | -16%
> CCOc1cc(C(=O)Nc2ccccc2N2CCOCC2)ccc1OCC(=O)N1CCCCC1
  i | -2%
> CC(C)(C)C(=O)Nc1sc2c(c1C#N)CCN(Cc1ccccc1)C2
  i | -1%
> N#Cc1c(N)sc(=S)c2c1CCCCC2
  -12% | 10%
> CCc1cccc(NC(=O)CCc2nc3cccnc3n2Cc2ccc(OC)cc2)c1
  -17% | -21%
> COC(=O)Nc1ncc(CN2CCC(c3ccccc3)CC2)s1
  -18% | ?
> Cc1cc2oc(C(=O)Nc3cccc(-c4nc5ccccc5o4)c3)c(C)c2cc1Cl
  -11% | 11%
> O=C(CSc1nccn1-c1cccc(Cl)c1)Nc1ccc2c(c1)OCCO2
  i | -13%
> CN(C)C(=O)Cn1cnc2c(cnn2-c2ccccc2Cl)c1=O
  -9% | -6%
> CCCCc1c(-c2ccc(F)cc2)ncn1CCc1ccccc1OC
  -25% | ?
> N#CCSc1nccc(/C=C/c2ccccc2)n1
  -7% | -7%
> Cc1cccc(CN2CCC(C(=O)Nc3ccc(-n4nc(C)cc4C)cc3)CC2)n1
  -8% | -23%
> Cc1noc(C)c1C(=O)N1CCN(CCc2ccccc2)CC1
  -16% | -10%
> COc1ccc(NCc2nnc(SCC(=O)NNC(=O)c3ccc(C)cc3)n2C)cc1
  -16% | -11%
> O=C(NCc1nc(-c2ccccc2)cs1)c1ccccc1
  -18% | -7%
> CSc1nc(C)cc(Oc2ccc(=O)[nH]n2)n1
  0% | 2%
> Cc1cnc(C(=O)NNC(=O)c2ccc(Br)cc2)cn1
  ? | ?
> CN(C)S(=O)(=O)c1cccc(NC(=O)COC(=O)c2cc(-c3cccc(Br)c3)nc3ccccc23)c1
  -15% | -15%
> O=C(Cc1cccc2ccccc12)NN1C(=O)CSC1=S
  4% | 13%
> Cn1nc(CC(=O)Nc2ccc(N3CCN(C(=O)OC(C)(C)C)CC3)cc2)c2ccccc2c1=O
  -9% | -2%
> Cc1ccc(S(=O)(=O)N[C@H]2CCC[C@@H]2O)cc1
  -14% | -5%
> CCCNS(=O)(=O)c1ccc(OCC(=O)N2CCOCC2)cc1
  i | -10%
> CN(CC(=O)Nc1ccc(Cl)cc1)C(=O)c1cccc(S(=O)(=O)N2CCN(Cc3ccccc3)CC2)c1
  -13% | -24%
> COc1ccc(NC(=O)CNC(=O)Cc2ccccc2)cc1OC
  i | 2%
> Cc1cccc(C)c1-n1nnnc1C1(C)CCC(=O)N1CCCN1CCOCC1 (configuration not stated)
  -8% | -7%
> CC(C)C(Cl)=NOC(=O)Nc1ccc(S(N)(=O)=O)cc1
  i | 7%
> N#Cc1ccc(C(=O)Nc2nc3ccccc3[nH]2)cc1
  -18% | -1%
